CtBP-E1A blk: inhibitors of CtBP/E1A interaction | activity change, % (test concentration not listed) | AID 651724 | AlphaScreen GST-E1A/His-CtBP binding, 1536-well; active compounds read low; control for the full effect not named in the record | 340,000 compounds, 0.49% hits; in the data active means activity change below about -65%; inconclusive means about -30% to -65%; inactive means above about -30%; note: % is set by controls: 0 for no effect and ±100 for the full control effect
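Steps: dispense buffer (Tris pH 8.0, NaCl 300 mM, TCEP 1 mM, BSA, Tween 20); add 5X protein mix (GST-E1A, His-CtBP, 125 nM each); pin 23 nL compound; 2 h at 37 °C, dark; add 5X beads (50 ug/mL); 1 h; read.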
TRPV1 PAM: potentiators of human vanilloid receptor 1 (TRPV1). potentiation, % at 8.33 µM. AID 540277. 320,000 compounds, 0.02% hits. TRPV1-expressing cells, Fluo-8 calcium influx, capsaicin EC20 potentiation; host cell line not named in the record; control for the full effect not named in the record. Q8NER1; active means potentiation above 80%; inconclusive means 30% to 80%; inactive means below 30%; note: 0% is about no effect
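TRPV1-expressing cells were cultured overnight at 35.5C and loaded with Fluo-8 calcium dye for 40 to 90 min at room temperature. After a 10 s baseline, compound was added and calcium influx was read kinetically for 3 min (ex 480/em 520 nm).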
Six1-Eya2 blk: blocks human Six1 binding to Eya2 | AID 651725 | Q15475+O00167 | AlphaScreen GST-Six1/His-Eya2 binding, biochemical; active compounds read low; control for the full effect not named in the record | activity change, % (no concentration beside the values) | 360,000 compounds, 0.56% hits; in the data active = activity change below about -65%; inconclusive = about -30% to -65%; inactive = above about -30%; note: % is set by controls: 0 for no effect and ±100 for the full control effect
Target sequence (O00167 whole entry, looked up): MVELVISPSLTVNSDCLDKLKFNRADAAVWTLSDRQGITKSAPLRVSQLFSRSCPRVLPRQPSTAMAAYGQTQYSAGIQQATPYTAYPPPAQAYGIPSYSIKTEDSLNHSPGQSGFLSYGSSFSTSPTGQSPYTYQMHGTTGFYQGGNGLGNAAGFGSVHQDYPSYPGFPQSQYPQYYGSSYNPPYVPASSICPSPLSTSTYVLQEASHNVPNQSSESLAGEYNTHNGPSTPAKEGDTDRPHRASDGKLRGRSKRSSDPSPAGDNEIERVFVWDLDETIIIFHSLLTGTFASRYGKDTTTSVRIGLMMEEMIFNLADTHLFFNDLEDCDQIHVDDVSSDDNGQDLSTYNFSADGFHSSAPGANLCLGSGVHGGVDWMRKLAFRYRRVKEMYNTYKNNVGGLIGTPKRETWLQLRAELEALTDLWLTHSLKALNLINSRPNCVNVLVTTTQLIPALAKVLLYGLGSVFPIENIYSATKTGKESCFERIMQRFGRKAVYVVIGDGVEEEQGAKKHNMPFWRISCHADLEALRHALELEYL
Target sequence (Q15475 whole entry, looked up): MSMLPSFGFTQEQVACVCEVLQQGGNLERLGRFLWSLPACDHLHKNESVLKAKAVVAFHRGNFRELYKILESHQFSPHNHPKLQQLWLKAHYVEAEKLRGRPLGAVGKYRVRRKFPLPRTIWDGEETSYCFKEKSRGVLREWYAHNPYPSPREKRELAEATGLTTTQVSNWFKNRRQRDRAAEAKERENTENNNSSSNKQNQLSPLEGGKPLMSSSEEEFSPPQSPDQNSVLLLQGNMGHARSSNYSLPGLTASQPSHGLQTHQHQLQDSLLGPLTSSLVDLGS
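Compounds are tested against tagged Six1 and Eya2 proteins bridged by glutathione donor and nickel acceptor beads; after a one-hour incubation at 37 °C without light, AlphaScreen emission is recorded.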
Sfp PPTase inh: inhibitors of Bacillus subtilis Sfp phosphopantetheinyl transferase; Q9F4F7; Potency, µM, for the others: max response, negative = inhibition, actives largely listed as inhibitors; 310,000 compounds, 3.5% hits; Biochemical Sfp PPTase activity, qHTS; active = well fitted inhibition curve with a large enough effect; inconclusive = small, poorly fitted or top-dose-only effect, or another doubt; inactive = no such curve, though single readings can be large or run the other way;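 note: the enzyme is Sfp with the accession as filed and its product quenches rhodamine fluorescence; potency is the fitted concentration of half-maximal effect; 0% = enzyme reaction without inhibitor and -100% = no enzyme wells; top concentration of the series not given in the record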
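With Hepes-Na pH 7.6 buffer containing 10 mM MgCl2, Sfp (15 nM) modified BHQ-2-YbbR (12.5 uM) using rhodamine-CoA (5 uM). Two reads 30 minutes apart at 525/598 nm yielded each well's rate.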
PINK1 expr mod: changes PINK1 expression | AID 624263 | Potency, µM (doses to about 76.6 µM), without a hit: at the highest dose activation (PINK1 increase), actives largely listed as activators | 410,000 compounds, 0.2% hits | PINK1 immunofluorescence, high-content cytometry, 24 h; active = well fitted activation curve with a large enough effect; inconclusive = small, poorly fitted or top-dose-only effect; inactive = flat fitted curve, though single readings scatter; cell line not stated here;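 note: potency is the fitted concentration of half-maximal effect; % of control where 0% means no effect; nearly all actives have a fitted effect of over 65% in size; a mitochondrial uncoupler was the plate control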
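Stable cell line, 250 cells/well, 12 h attachment; compounds pinned at 5 concentrations, 24 h; CCCP control. Fixed with nuclear dye, primary antibodies 12 h at 10 degrees C, secondary plus cell stain; laser-scanning cytometer read.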
D2 ag: agonists of human D2 dopamine receptor (beta-arrestin); DiscoveRx PathHunter D2 beta-arrestin, luminescence, 90 min; 100% = 57 uM dopamine signal; activation, % (no concentration beside the values); 360,000 compounds, 0.084% hits; AID 624465; in the data active = activation above about 40%; inconclusive = about 15% to 40%; inactive = below about 15%; note: compound concentration not given in the record; the text of the record calls up to 30% inactive
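Agonist mode: compounds alone added to overnight-plated D2 PathHunter cells for 90 min at 37 C, with 57 uM final dopamine (EC100) defining full response. Beta-arrestin recruitment detected by chemiluminescent reagent, read after 1 h at ambient temperature.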
D2 potentiator: human D2 receptor positive allosteric modulation; 360,000 compounds, 0.23% hits; DiscoveRx D2 beta-arrestin cells, luminescence, 90 min; 100% = 57 uM dopamine signal; potentiation, % (test concentration not listed); P14416; active = potentiation of 50% or more; inconclusive = 30% to 50%; inactive = 30% or less;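 note: compound concentration not given in the record; tested on top of an EC20 dose of dopamine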
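PathHunter D2 cells, attached overnight at 37 deg C, received compound in DMSO plus dopamine at EC20 (50 nM final) for 90 min at 37 deg C. Beta-arrestin recruitment was read as luminescence after 1 h with detection reagent at ambient temperature.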
Numbers without * were called inactive; ? = inconclusive; . = not tested or not shown; & = joins results of further samples; [ ] = remark or other dose. An unsorted share of the library; overall some 3.7% were active at least once.

1. Cc1c(N2C(=O)C3C4C=CC(C4)C3C2=O)c(=O)n(-c2ccccc2)n1C (stereo not given)
2. CC(=O)N1c2ccc(S(=O)(=O)NCCC(=O)NC3CCCC(C)C3C)cc2CC1C (stereo not given)
3. CCC(=O)c1ccc(OCC(=O)OCC(=O)N2CCc3ccccc3C2)cc1
4. O=C(NCCC(=O)N1CCC2(CC1)NCCc1[nH]cnc12)c1ccc(F)c(F)c1
5. Fc1cccc(Nc2ncnc3c2cnn3-c2ccccc2)c1
6. CCCCOC(=O)C1CN(c2ccccc2)N=C1C(=O)OCC (stereo not given)
7. O=c1c2ccccc2nc(SCCN2CCOCC2)n1CCc1ccccc1
8. Cc1c(C(=O)Nc2ccc(Cc3ccncc3)cc2)cccc1[N+](=O)[O-]
assay / compound	1	2	3	4	5	6	7	8
CtBP-E1A blk	8	13	-8	.	-1	2	-6	-7
TRPV1 PAM	7	5	-9	-1	-10	19	-2	-12
Six1-Eya2 blk	-4	24	7	-3	7	113	-10	18
Sfp PPTase inh	5%	-2%	.	2%	17%	-5%	-19%	3%
PINK1 expr mod	1.5%	4.8%	1.4%	1.7%	11%	1.3%	1.7%	-1.9%
D2 ag	-1.9	-2.6	4.7	-4.4	4.1	-3.5	-0.5	-5.6
D2 potentiator	-10	-1	-18	-7	1	-9	-10	5

9. CC(C)C[C@H](NC(=O)c1[nH]cnc1C(=O)N[C@@H](Cc1ccccc1)C(=O)OC(C)(C)C)C(=O)OC(C)(C)C
10. Cc1ccc([C@@H]2[C@@H]3C(=O)N(C)C(=O)[C@@H]3[C@]3(C)C(=O)N(CC4CC4)CC(=O)N23)o1
11. Cc1csc(NC(=O)c2ccc3c(c2)OCO3)n1
12. COc1cccc(C(O)CC(N)=O)c1 (stereo not given)
13. CCOc1ccc(C(=O)C(C)OC(=O)Cn2cnc3c2c(=O)n(C)c(=O)n3C)cc1 (stereo not given)
14. Cc1ccc(C2=NN(C(=O)CNCCO)C(c3cccs3)C2)cc1 (stereo not given)
15. O=C(CN1C(=O)C2C3CC(C(Br)C3Br)C2C1=O)Nc1ccc(C(=O)O)cc1 (stereo not given)
16. CCCOc1cccc(C(=O)NCCNC(=O)c2ccc(C)nc2)c1
assay / compound	9	10	11	12	13	14	15	16
CtBP-E1A blk	0	-5	-7	-2	11	.	.	5
TRPV1 PAM	?	-10	-23	4	3	-11	-9	1
Six1-Eya2 blk	-4	4	-9	6	1	-1	7	9
Sfp PPTase inh	30%[activator]	9%	15%	4%	.	-3%	13%	17%
PINK1 expr mod	?	2.1%	9.4%	0.2%	2.7%	-0.2%	0.4%	2.2%
D2 ag	-3.9	0.9	-3.6	-1.0	-1.0	-0.5	-2.6	-2.0
D2 potentiator	-38	-33	-4	-2	-9	-10	-11	-6

Rewritten as a markdown table: part of the list above.
| entry | Molecule | CtBP-E1A blk | TRPV1 PAM | Six1-Eya2 blk | Sfp PPTase inh | PINK1 expr mod | D2 ag | D2 potentiator |
| --- | --- | --- | --- | --- | --- | --- | --- | --- |
| 15 | O=C(CN1C(=O)C2C3CC(C(Br)C3Br)C2C1=O)Nc1ccc(C(=O)O)cc1 (stereo not given) | . | -9 | 7 | 13% | 0.4% | -2.6 | -11 |
| 11 | Cc1csc(NC(=O)c2ccc3c(c2)OCO3)n1 | -7 | -23 | -9 | 15% | 9.4% | -3.6 | -4 |
| 12 | COc1cccc(C(O)CC(N)=O)c1 (stereo not given) | -2 | 4 | 6 | 4% | 0.2% | -1.0 | -2 |
| 13 | CCOc1ccc(C(=O)C(C)OC(=O)Cn2cnc3c2c(=O)n(C)c(=O)n3C)cc1 (stereo not given) | 11 | 3 | 1 | . | 2.7% | -1.0 | -9 |
| 10 | Cc1ccc([C@@H]2[C@@H]3C(=O)N(C)C(=O)[C@@H]3[C@]3(C)C(=O)N(CC4CC4)CC(=O)N23)o1 | -5 | -10 | 4 | 9% | 2.1% | 0.9 | -33 |
| 16 | CCCOc1cccc(C(=O)NCCNC(=O)c2ccc(C)nc2)c1 | 5 | 1 | 9 | 17% | 2.2% | -2.0 | -6 |

Later entries:
17. Cc1ccc(C)c(S(=O)(=O)NCCCc2ccccc2)c1
18. Cc1cc(SCC(=O)N/N=C/c2cccnc2)nc2c(C)cccc12
19. C/C(=N/OC(=O)c1ccc(C)cc1)C(=O)c1ccc(Br)cc1
20. CS(=O)(=O)c1ccc(-c2cccc(NC(=O)c3ccc(Br)o3)c2)nn1
21. COc1ccc(NC(=O)/C(N=Nc2ccc(Cl)c(S(=O)(=O)Nc3ccc(Cl)cc3)c2)=C(\C)O)cc1
22. COc1ccc([N+](=O)[O-])cc1NC(=O)CC1SC(=Nc2cccc(C)c2C)N(/N=C/c2cccc(OC)c2OC)C1=O (stereo not given)
23. COc1ccc(-c2nn(-c3ccccc3)cc2/C=C2/SC(=S)N(CCC(=O)O)C2=O)c(C)c1
24. CCCOc1ccc(NC(=O)CC2C(=O)N(c3ccc(OCC)cc3)C(=S)N2C2CC2)cc1 (stereo not given)
assay / compound	17	18	19	20	21	22	23	24
CtBP-E1A blk	-2	7	.	-2	-1	-3&-7	-1	3
TRPV1 PAM	2	6	12	-2	.	3	-8	4
Six1-Eya2 blk	5	5	1	-5	5	-2&-9	-5	6
Sfp PPTase inh	1%	-25%	?	.	.	17%	-28%	9%
PINK1 expr mod	0.9%	-0.9%	-1.5%	6.8%	-1.2%	2.0%&2.4%	4.0%	7.9%
D2 ag	-2.4	-2.9	-5.3	-0.2	-1.0	-3.7&1.2	5.3	-3.5
D2 potentiator	-4	-5	-18	6	-2	-9&-7	-4	-1

25. CCCS(=O)(=O)NC(=O)C1(C)CCN(C(=O)Cc2ccc(OC)cc2)C1 (stereo not given)
26. Cc1cc(-c2csc(NC(=O)c3ccccc3C(F)(F)F)n2)c(C)n1Cc1ccccc1
27. COc1ccccc1NC(=O)C1=C(C)NC(=O)NC1c1ccco1 (stereo not given)
28. Cc1cc(/C=C2\SC(=O)N(CC(=O)Nc3ccccc3F)C2=O)c(C)n1C
29. CC(=O)c1c(C)[nH]c(C(=O)Nc2ccc(S(=O)(=O)N(C)C)cc2)c1C
30. COc1ccc(CCNC(=O)C2CCCN2S(=O)(=O)c2cccc3nsnc23)cc1OC (stereo not given)
31. S=C(Nc1cccc2ccccc12)NN1CCOCC1
32. O=C(CC1COc2ccccc2O1)NCCc1ccccc1 (stereo not given)
assay / compound	25	26	27	28	29	30	31	32
CtBP-E1A blk	3	4	.	0	-21	0	10	7
TRPV1 PAM	.	0	6	-2	-27	20	19	-3
Six1-Eya2 blk	-2	3	10	10	5	1	11	6
Sfp PPTase inh	.	2%	17%	-2%	1%	13%	-17%	2%
PINK1 expr mod	0.0%	3.6%	0.5%	15%	0.1%	-1.7%	0.7%	-1.0%
D2 ag	-4.8	-0.9	-4.7	-3.8	-2.3	-0.1	-3.0	-1.5
D2 potentiator	-10	-7	-14	-4	-6	-6	-23	-2

33. O=C1NC(=S)NC(=O)C1=Cc1ccccc1C(=O)O
34. Cc1cc(C(=O)CSc2nnc(-c3ccc(OC(F)F)cc3)o2)c(C)n1Cc1cccs1
35. CC(C)OCc1ccc(C(=O)N2CCN(CC(=O)N3CCCC3)CC2)cc1
36. O=C(CN1C(=O)c2ccccc2C1=O)c1ccc(F)cc1
37. O=C(/C=C/c1cccc(C(F)(F)F)c1)Nc1cccc(C(F)(F)F)c1
38. O=C1CCC([N+](=O)[O-])C(c2ccc(Cl)c([N+](=O)[O-])c2)N1 (stereo not given)
39. O=C(Nc1ccccc1-c1ccccc1)NC1CCN(CC(=O)N2CCOCC2)CC1
40. Cc1ccc2c(c1)N(C(=O)CCC(=O)Nc1ccccc1Br)CC(C)O2 (stereo not given)
assay / compound	33	34	35	36	37	38	39	40
CtBP-E1A blk	2	-6	4	11	33	5	-2	2
TRPV1 PAM	.	6	.	-6	-10	-1	-11	-6
Six1-Eya2 blk	-8	1	1	4	26	13	4	-3
Sfp PPTase inh	.	3%	.	-1%	-11%	18%	20%	6%
PINK1 expr mod	-1.8%	2.2%	-1.1%	-1.4%	?	-0.8%	-0.6%	-0.3%
D2 ag	-1.2	-4.1	-2.6	-1.9	4.2	-19	-2.8	-0.4
D2 potentiator	-23	-14	-10	-8	-1	-5	-24	-3

Looked up by compound from the list above, 3 records:
34. Cc1cc(C(=O)CSc2nnc(-c3ccc(OC(F)F)cc3)o2)c(C)n1Cc1cccs1
36. O=C(CN1C(=O)c2ccccc2C1=O)c1ccc(F)cc1
35. CC(C)OCc1ccc(C(=O)N2CCN(CC(=O)N3CCCC3)CC2)cc1
assay / compound	34	36	35
CtBP-E1A blk	-6	11	4
TRPV1 PAM	6	-6	.
Six1-Eya2 blk	1	4	1
Sfp PPTase inh	3%	-1%	.
PINK1 expr mod	2.2%	-1.4%	-1.1%
D2 ag	-4.1	-1.9	-2.6
D2 potentiator	-14	-8	-10

Next part:
41. CSc1ccc(N2C(=O)NC3(CCCCC3)C2=O)cc1
42. O=C(Cn1cc(C(F)(F)F)ccc1=O)N1CCc2ccccc21
43. O=C(c1ccccc1Sc1cccc2ccccc12)N1CCOCC1
44. CCCCOc1ccc(C(=O)N2CCCCCC2)cc1
45. O=C1CCCC(O)=C1C1NCCc2ccccc21 (stereo not given)
46. Cc1ccc(/C=N/NC(=O)C2=NNC(c3ccccc3)(c3ccccc3)C2)c(O)c1
47. COc1ccc(C2C(C#N)=C(N)OC3=C2C(=O)CCC3)c(OC)c1OC (stereo not given)
48. COc1cccc(CC2(CO)CCCN(Cc3cc(F)ccc3-n3cccn3)C2)c1 (stereo not given)
assay / compound	41	42	43	44	45	46	47	48
CtBP-E1A blk	-2	.	-2	0	1	?	-2	5
TRPV1 PAM	17	.	5	-21	2	5	2	-5
Six1-Eya2 blk	0	3	-2	9	-1	?	8	0
Sfp PPTase inh	0%	.	5%	-7%	6%	-14%	24%	17%
PINK1 expr mod	1.1%	-0.4%	-0.3%	23%	0.2%	1.4%	-3.8%	-1.3%
D2 ag	-3.5	-5.1	-2.0	-1.6	-2.3	-4.6	-1.4	-3.0
D2 potentiator	2	-10	-15	-7	13	-41	15	-11
